TRPML1 blocker: qHTS for Inhibitors of the Human Mucolipin Transient Receptor Potential 1 (TRPML1) | TRPML1-inducible cells, Ca2+ dye fluorescence, FDSS; active compounds read low; inhibition of EC80 agonist-evoked calcium signal | activity change, negative = inhibition, % (no concentration beside the values) | 390,000 compounds, 0.02% hits | AID 624415, 2012; in the data active means activity change below about -50%; inconclusive means about -30% to -50%; inactive means above about -30%;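 note: stimulus is agonist 54-4 at its EC80 concentration; % is set by controls: 0 for no effect and ±100 for the full control effect; compound concentration not given in the record; the text of the record puts the active cut at -80%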
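Tet-induced TRPML1-DL cells loaded with Ca8 no-wash calcium dye were read kinetically on FDSS. Compound addition was followed by EC80 agonist 54-4 (4 uM final); inhibition was read over 110 s.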
TRPML1 ag: qHTS for Agonists of the Human Mucolipin Transient Receptor Potential 1 (TRPML1) | TRPML1-expressing cells, Ca2+ dye fluorescence, FDSS; host cell line not named in the record; reference of the full effect not given here | activation, % (test concentration not listed) | 410,000 compounds, 0.12% hits | AID 624414, 2012; in the data active = activation above about 50%; inconclusive = about 30% to 50%; inactive = below about 30%; note: 0% is about no effect; the text of the record puts the active cut at 80%
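TRPML1-DL cells, Tet-induced overnight (~16 h, 37 degrees C), loaded 45-90 min at room temperature with Ca8 no-wash calcium dye plus quencher. FDSS fluorescence: 10 s baseline, compound pin-transfer, 110 s agonist read, then EC80 54-4 (4uM final) and 110 s antagonist read.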
D2 PAM: Beta-Arrestin HTS for Positive Allosteric Modulators of the Human D2 Dopamine Receptor: Potentiators; DiscoveRx D2 beta-arrestin cells, luminescence, 90 min; 100% = 57 uM dopamine signal; 360,000 compounds, 0.23% hits; D(2) dopamine receptor (Homo sapiens), P14416; potentiation, % (test concentration not listed); active = potentiation of 50% or more; inconclusive = 30% to 50%; inactive = 30% or less;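 note: compound concentration not given in the record; tested on top of an EC20 dose of dopamine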
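PathHunter beta-arrestin assay in DiscoveRx D2 cells. Compounds were added with an EC20 of dopamine (50 nM final) for 90 min at 37 deg C. Luminescence was read 1 h after detection reagent, with 57 uM dopamine as the EC100 control.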
CtBP-E1A inh: qHTS Assay for Inhibitors of the CtBP/E1A Interaction | 340,000 compounds, 0.49% hits | AlphaScreen GST-E1A/His-CtBP binding, 1536-well; active compounds read low; control for the full effect not named in the record | AID 651724, 2012 | CtBP / adenovirus E1A interaction (AlphaScreen) | activity change, % (no concentration beside the values); in the data active means activity change below about -65%; inconclusive means about -30% to -65%; inactive means above about -30%; note: % is set by controls: 0 for no effect and ±100 for the full control effect
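Homogeneous bead-based format: GST-tagged E1A captured on glutathione donor beads, His-tagged CtBP on nickel acceptor beads; compounds precede bead addition by 2 h at 37 °C.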
Six1-Eya2 blk: qHTS Assay for Inhibitors of the Six1/Eya2 Interaction; Homeobox protein SIX1 (Homo sapiens) + Protein phosphatase EYA2 (Homo sapiens), …; AlphaScreen GST-Six1/His-Eya2 binding, biochemical; active compounds read low; control for the full effect not named in the record; activity change, % (concentration not given with the values); 360,000 compounds, 0.56% hits; in the data active = activity change below about -65%; inconclusive = about -30% to -65%; inactive = above about -30%; note: % is set by controls: 0 for no effect and ±100 for the full control effect
Target sequence (O00167 whole entry, looked up): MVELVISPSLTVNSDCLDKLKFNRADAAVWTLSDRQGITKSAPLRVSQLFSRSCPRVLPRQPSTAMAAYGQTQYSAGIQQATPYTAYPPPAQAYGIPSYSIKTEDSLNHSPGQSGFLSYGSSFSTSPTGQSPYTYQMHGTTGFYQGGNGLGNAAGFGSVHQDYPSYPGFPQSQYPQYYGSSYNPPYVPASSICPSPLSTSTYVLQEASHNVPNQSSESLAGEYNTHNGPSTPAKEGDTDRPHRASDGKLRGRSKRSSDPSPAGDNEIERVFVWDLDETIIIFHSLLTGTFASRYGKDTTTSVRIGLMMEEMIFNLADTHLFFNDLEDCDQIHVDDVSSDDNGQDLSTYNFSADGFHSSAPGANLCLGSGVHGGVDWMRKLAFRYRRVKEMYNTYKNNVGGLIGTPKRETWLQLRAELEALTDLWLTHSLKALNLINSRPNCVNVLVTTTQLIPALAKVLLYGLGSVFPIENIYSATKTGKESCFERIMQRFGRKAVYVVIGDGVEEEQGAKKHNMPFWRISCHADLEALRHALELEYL
Target sequence (Q15475 whole entry, looked up): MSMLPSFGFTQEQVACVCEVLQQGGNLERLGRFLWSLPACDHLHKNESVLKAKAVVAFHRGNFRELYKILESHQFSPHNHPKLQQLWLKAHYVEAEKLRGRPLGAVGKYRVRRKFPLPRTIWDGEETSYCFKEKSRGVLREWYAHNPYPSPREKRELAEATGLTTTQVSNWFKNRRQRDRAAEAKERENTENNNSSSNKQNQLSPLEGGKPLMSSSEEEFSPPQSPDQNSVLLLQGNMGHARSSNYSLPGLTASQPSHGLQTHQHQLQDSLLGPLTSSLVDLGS
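Compounds are tested against tagged Six1 and Eya2 proteins bridged by glutathione donor and nickel acceptor beads; after a one-hour incubation at 37 °C without light, AlphaScreen emission is recorded.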
TRPV1 potentiator: HTS Assay for Compounds that Act as Potentiators of the Vanilloid Receptor 1; potentiation, % at 8.33 µM; Transient receptor potential cation channel subfamily V member 1 (Homo sapiens), Q8NER1; TRPV1-expressing cells, Fluo-8 calcium influx, capsaicin EC20 potentiation; host cell line not named in the record; control for the full effect not named in the record; 320,000 compounds, 0.02% hits; active means potentiation above 80%; inconclusive means 30% to 80%; inactive means below 30%; note: 0% is about no effect
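Fluo-8 calcium influx in TRPV1-expressing cells, kinetic read (ex 480/em 520 nm). Compound added and read 3 min for agonist activity, followed by capsaicin at EC20 final and 2 min further read for enhancement.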
The depositor's hits bear a star; ? = inconclusive; nt = no result given; & = joins results of further samples. Compounds were not picked by outcome. About 0.95% of those tested had a hit in this group.

Start of the data: the first 13 entries as a preview:
SMILES	TRPML1 blocker	TRPML1 ag	D2 PAM	CtBP-E1A inh	Six1-Eya2 blk	TRPV1 potentiator
COC(=O)c1ccc(Oc2nc(NC(C)C)nc(N(C)C)n2)cc1	-10	-1.1	-2	5	-3	nt
Cc1ccc(Nc2nc(-c3cccs3)cs2)nc1	-20	0.3	0	18	-19	10
Clc1ccc2nc(-c3ccccn3)c(Nc3ccc4c(c3)OCO4)n2c1	10	2.3	-2	5	-20	-3
O=C(CN1CCCC1)Nc1ccc(F)c(Cl)c1	-9	-0.2	-17	5	9	13
COc1cccc(-c2cc(C(=O)N3CCCc4ccccc43)no2)c1	-2	1.6	-9	50	32	9
CC(O)Cn1c(N2CCCC2)nc2c1c(=O)n(C)c(=O)n2C (stereo unspecified)	-9	0.0	-3	-1	4	5
CCCNC(=O)c1cc(S(=O)(=O)N2CCCCC2)ccc1N1CCOCC1	-15	-1.1	12	1	2	-8
Clc1ccc(CN2CCCCCCC2)cc1Cl	21	-0.3	-46	21	26	-7
Cc1n[nH]c(=O)c2c(NC(=O)CSc3nnc(C4CC4)n3C)oc(C)c12	4	0.2	-4	-6	-2	?
CC(C)C[C@H]1CNC(=O)C(=O)N1C[C@H]1CCCN1C[C@H](CC(C)C)N1C[C@H](CC(C)C)N(CCc2ccccc2)C(=O)C1=O	nt	-0.6	nt	1	-1	nt
COc1ccc(OC)c(NC(=O)C2CC(/C=C/c3ccccc3)=NO2)c1 (stereo unspecified)	10	-0.7	-2	2	8	29
CCCCc1ccc(NS(=O)(=O)c2cccc(C(=O)N3CCCN(C)CC3)c2)cc1	-10	0.8	-7	-7	-3	1
Cn1cc(S(=O)(=O)N2CCCC2)cc1C(=O)NCc1ccccc1Cl	-5	-0.3	-3	-15	0	19

Main list, previewed entries included:
SMILES	TRPML1 blocker	TRPML1 ag	D2 PAM	CtBP-E1A inh	Six1-Eya2 blk	TRPV1 potentiator
COC(=O)c1ccc(Oc2nc(NC(C)C)nc(N(C)C)n2)cc1	-10	-1.1	-2	5	-3	nt
Cc1ccc(Nc2nc(-c3cccs3)cs2)nc1	-20	0.3	0	18	-19	10
Clc1ccc2nc(-c3ccccn3)c(Nc3ccc4c(c3)OCO4)n2c1	10	2.3	-2	5	-20	-3
O=C(CN1CCCC1)Nc1ccc(F)c(Cl)c1	-9	-0.2	-17	5	9	13
COc1cccc(-c2cc(C(=O)N3CCCc4ccccc43)no2)c1	-2	1.6	-9	50	32	9
CC(O)Cn1c(N2CCCC2)nc2c1c(=O)n(C)c(=O)n2C (stereo unspecified)	-9	0.0	-3	-1	4	5
CCCNC(=O)c1cc(S(=O)(=O)N2CCCCC2)ccc1N1CCOCC1	-15	-1.1	12	1	2	-8
Clc1ccc(CN2CCCCCCC2)cc1Cl	21	-0.3	-46	21	26	-7
Cc1n[nH]c(=O)c2c(NC(=O)CSc3nnc(C4CC4)n3C)oc(C)c12	4	0.2	-4	-6	-2	?
CC(C)C[C@H]1CNC(=O)C(=O)N1C[C@H]1CCCN1C[C@H](CC(C)C)N1C[C@H](CC(C)C)N(CCc2ccccc2)C(=O)C1=O	nt	-0.6	nt	1	-1	nt
COc1ccc(OC)c(NC(=O)C2CC(/C=C/c3ccccc3)=NO2)c1 (stereo unspecified)	10	-0.7	-2	2	8	29
CCCCc1ccc(NS(=O)(=O)c2cccc(C(=O)N3CCCN(C)CC3)c2)cc1	-10	0.8	-7	-7	-3	1
Cn1cc(S(=O)(=O)N2CCCC2)cc1C(=O)NCc1ccccc1Cl	-5	-0.3	-3	-15	0	19
CC1CCC2(CC1)NC(=O)N(CC(=O)N1CCN(c3ccccc3)CC1)C2=O (stereo unspecified)	0	0.3	-1	5	2	-5
CCOC(=O)C1=C(c2ccccc2)c2ccccc2N(S(=O)(=O)C(F)(F)F)C1C(=O)OCC (stereo unspecified)	-11	0.4	nt	4	8	nt
Cc1ccc(NC(=O)CCC(=O)c2cccs2)nc1	-8	0.4	2	0	-2	-3
COc1ccc2cc(CCNC(=O)C3CC3)c(=O)[nH]c2c1	0	0.0	-1	2	-1	-11
Cc1cccc(C(=O)OCC(=O)c2ccc3c(c2)OCCO3)c1O	32	2.7	0	nt	7	nt
O=C(O)c1ccc(Cl)cc1NC(=O)C1CCCO1 (stereo unspecified)	13	0.0	-1	-2	2	4
CCCCN(C(=O)CSc1ncnc2sccc12)c1c(N)n(Cc2ccccc2)c(=O)[nH]c1=O	-9	-0.6	-5	0	3	nt
O=C(O)c1ccccc1-c1ccccc1C(=O)NNc1ccccc1	-15	-0.6	5	-2	2	3
COC(=O)c1cc(NC(=O)c2c(Cl)nc3sccn23)cc(C(=O)OC)c1	1	0.4	-3	5	4	1
CCCc1cc(=O)[nH]c(SCCOc2ccc(OCC)cc2)n1	2	2.5	1	-22	-20	-5
CC1CCCCN1C(=O)CSc1nnc(CSc2ncccn2)n1C (stereo unspecified)	24	2.1	1	-3	4	11
Cc1ccc(S(=O)(=O)NCCC(=O)OCC(=O)NC(=O)c2cccn2C)cc1	0	1.2	-7	nt	-1	-2
SMILES	TRPML1 blocker	TRPML1 ag	D2 PAM	CtBP-E1A inh	Six1-Eya2 blk	TRPV1 potentiator
Cc1ccc(S(=O)(=O)Nc2cc(-c3nn(C)c(=O)c4ccccc34)ccc2N2CCOCC2)cc1	54	-0.6	-11	-9	-1	7
COc1ccccc1/C=C/CN1CCCC(CO)(CCc2ccccc2)C1 (stereo unspecified)	-5	0.1	-23	-8	-2	4
Cc1ccc(OCc2nnc(SCC(=O)Nc3ncc(C)s3)o2)cc1	10	-0.3	-3	0	-3	5
Cc1ccc(SCCN2CCC(C(C)(C)C)CCC2=O)cc1 (stereo unspecified)	31	1.0&-0.3	-5	-18	15	19
CC(C)C(c1nnnn1Cc1cccs1)N1CCN(C2CCCC2)CC1 (stereo unspecified)	-4	-1.2	-8	2	0	-2
CC(C)OP(=O)(OC(C)C)C(O)c1ccc2c(c1)OCO2 (stereo unspecified)	3	-0.3	-8	-3	8	-1
O=C1[C@H]2[C@@H](c3ccccc3)N[C@]3(CCCN(Cc4ccc(Br)cc4)C3=O)[C@H]2C(=O)N1Cc1ccccc1	5	-0.1	-9	-6	0	nt
Cc1ccc(S(=O)(=O)Oc2ccc(/C=C3/N=C(c4ccccc4)OC3=O)cc2)cc1	-9	-0.8	4	1	-6	-5
Nc1c(-c2ccc(Cl)cc2)cnc2ncnn12	5	-1.0	14	1	-1	17
CCOc1ccc(OCCN2C(=O)NC(Cc3c[nH]c4ccccc34)C2=O)cc1 (stereo unspecified)	-2	1.2	-5	-18	-7	2
CCOC(=O)c1c(C)[nH]c(C)c1S(=O)(=O)N(C)CC(=O)Nc1ccccc1OC	-6	0.4	-6	-4	-1	0
Cc1ccc(C)n1/N=C1/NC(=O)CS1	0	0.4	-4	2	?	0
CCN1CCN(C(c2ccccc2)c2nnnn2Cc2ccc(OC)cc2)CC1 (stereo unspecified)	25	1.1	-11	-4	0	-6
COc1ccc(NC(=O)CN(C)S(=O)(=O)c2cnc[nH]2)cc1OC	-4	-0.3	-2	2	4	?
CN(C(=O)CSc1nnc(-c2ccc(OC(F)F)cc2)n1N)C1CCS(=O)(=O)C1 (stereo unspecified)	3	0.0	2	-17	5	9
CCOC(=O)/C(C#N)=C1/C=CN(c2ccccc2)C=N1	18	0.7	5	-1	0	-20
CCOC(OCC)c1cn(Cc2ccc(C(=O)c3ccccc3)cc2)nn1	7	0.0	-4	nt	-2	-1
Cc1onc(-c2ccccc2)c1-c1ccnn1C(=O)NC(C)C	9	0.1	-5	11	18	nt
CC(C)NC(=O)c1ccccc1NC(=O)/C=C/c1cccc([N+](=O)[O-])c1	4	-0.5	-1	-7	-3	-14
Cc1ccccc1C(=O)OCC(=O)NCc1ccco1	7	-0.1	-29	-1	-8	nt
O=C(NCCCn1ccnc1)C1CC2CCC1C2 (stereo unspecified)	12	-0.6	9	5	4	0
Cc1ccc(CN2CCN(/N=C/c3ccc(C(=O)O)cc3)CC2)cc1	6	1.3	-9	-1	7	-2
CN(Cc1ccccc1)S(=O)(=O)c1ccc(NC(=O)c2ccccc2C(=O)O)cc1	11	-1.1	-17	nt	5	nt
CC(NC(=O)CNC(=O)C1O[C@@H]2OC(C)(C)O[C@@H]2[C@H]2OC(C)(C)O[C@@H]12)C(=O)O (stereo partly specified)	22	1.3	-3	-7	7	-2
CCCn1nc(C(=O)OCC(=O)c2ccc3c(c2)NC(=O)CO3)c2ccccc2c1=O	27	0.5	9	3	5	0

Part of the list above, with each value named.
canonical_smiles: CN(Cc1ccccc1)S(=O)(=O)c1ccc(NC(=O)c2ccccc2C(=O)O)cc1
  TRPML1 blocker = 11 | TRPML1 ag = -1.1 | D2 PAM = -17 | CtBP-E1A inh = nt | Six1-Eya2 blk = 5 | TRPV1 potentiator = nt

canonical_smiles: CC(NC(=O)CNC(=O)C1O[C@@H]2OC(C)(C)O[C@@H]2[C@H]2OC(C)(C)O[C@@H]12)C(=O)O (stereo partly specified)
  TRPML1 blocker = 22 | TRPML1 ag = 1.3 | D2 PAM = -3 | CtBP-E1A inh = -7 | Six1-Eya2 blk = 7 | TRPV1 potentiator = -2

(next part)
SMILES	TRPML1 blocker	TRPML1 ag	D2 PAM	CtBP-E1A inh	Six1-Eya2 blk	TRPV1 potentiator
C/C(=N\NC(=O)Cc1ccccc1Cl)c1cccnc1	1	-0.1	6	-1	-5	12
CNC(=S)NNC(=O)Cc1ccccc1	-6	-0.4	4	-8	0	4
NC(=O)c1nc(C(=O)N2CCCCC2)c2ccccc2n1	5	-0.8	-11	-9	?	10
COc1cccc(N(CC(=O)NC2CC3CCC2C3)S(=O)(=O)c2ccccc2)c1 (stereo unspecified)	11	0.6	-5	-17	-2	9
CCC(=O)Nc1nnc(SCc2ccc(F)cc2)s1	8	0.0	-6	2	-2	3
CSc1cccc(NC(=S)N2CCC(N(C)C3CCCCC3C)CC2)c1 (stereo unspecified)	-1	-0.6	0	-5	-18	?
Cc1ccc(S(=O)(=O)N(C)c2c(C)ccc(S(=O)(=O)N3CCN(C=O)CC3)c2C)cc1	9	0.0	5	2	-7	1
O=C(CN1C(=O)C(=O)N(CCC2=CCCCC2)C1=O)c1c[nH]c2ccccc12	28	0.4	-1	-12	3	nt
O=C(c1ccc(Br)o1)N1CCN(c2ccc3nnc(-c4ccc(F)cc4)n3n2)CC1	26	0.5	1	-3	2	-11
O=C(OCc1c(-c2ccccc2)ncc2ccccc12)c1ccc(Br)cc1	-26	0.7	-9	2	2	5
CCCCc1cc(=O)oc2cc(C)cc(OCC(=O)N3C[C@H]4C[C@@H](C3)c3cccc(=O)n3C4)c12	nt	nt	-35	-15	-2	4
CCS(=O)(=O)N1Cc2ccccc2CC1C(=O)OCC(=O)N(C(C)C)C(C)C (stereo unspecified)	-1	0.1	1	8	-1	0
CCN(CC(=O)NCc1ccc(Cl)cc1)CC(=O)Nc1ccc(C(N)=O)cc1	-12	-0.6	-12	-3	-4	24
O=C(NC1CCCCC1)C1CC=CCC1C(=O)OCC(Cl)=C(Cl)Cl (stereo unspecified)	23	1.5	-17	-2	-6	-23
